# HCMV UL50-53 inh: inhibitors of HCMV UL50-UL53 interaction, biochemical, HTRF; normalized percent inhibition; actives 0.15% (n = 190,000); AID 1918969, 2023; inhibition, % (test concentration not listed);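 active = both replicates at 50% or more, plus weaker picks with an unusually low signal ratio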;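 note: stock transfer was 100 nL into about 20 µL; 0% = negative control wells and 100% = wells with untagged competitor protein; inactives centre near -12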
# Sa growth 42C: S. aureus growth inhibition at 42 and 30 °C, primary screen, LtaS inhibitor project, RN4220, two temperatures; OD600, 20 h, 42 °C; active compounds read low; relative growth, % (no concentration beside the values); actives 0.53% (n = 170,000); AID 720641, 2013;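 active = growth at 42 °C up to 50% and 20 or more points under that at 30 °C, or under 10% at both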;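 note: 300 nL library stock went into each well; scaled to the means of positive and negative controls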
# GIV Gai3 FP: inhibitors of GIV peptide binding to Galpha-i3, primary screen, biochemical, fluorescence polarization, FITC-GIV GBA peptide, rat Galphai3; percent of control (FP), % (test concentration not listed); actives 0.42% (n = 210,000); AID 1224905, 2016; 90 min; active compounds read low; scaled: aluminum fluoride 0%, vehicle 100%;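 active = replicate mean at 85% of control or lower, very high polarization wells dropped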;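 note: lower values mean more displacement of the GIV peptide from Galpha-i3; wells of about 15 µL received 100 nL stock; the first replicate is given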
# Target sequence (P08753 whole entry, looked up): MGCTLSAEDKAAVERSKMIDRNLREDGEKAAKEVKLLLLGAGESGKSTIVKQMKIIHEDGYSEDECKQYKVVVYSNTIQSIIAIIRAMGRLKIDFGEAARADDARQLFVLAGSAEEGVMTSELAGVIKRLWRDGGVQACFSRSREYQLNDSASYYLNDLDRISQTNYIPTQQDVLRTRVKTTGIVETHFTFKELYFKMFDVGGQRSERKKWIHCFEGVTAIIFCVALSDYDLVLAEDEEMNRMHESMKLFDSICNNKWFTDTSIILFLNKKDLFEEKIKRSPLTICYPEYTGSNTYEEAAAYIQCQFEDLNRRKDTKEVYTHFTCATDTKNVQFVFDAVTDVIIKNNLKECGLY
# Sa growth 42C second temp: also measured in Sa growth 42C; calls as there; relative growth, %; measured here: growth at 30 °C;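 optical density after 20 h as mean of two plates; 100% = untreated growth and lower means inhibition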
# The depositor's hits bear a star; x = no result given; & = joins results of further samples.
no.	canonical_smiles	Sa growth 42C second temp	GIV Gai3 FP
1	CCn1cc(C(=O)NCCCOC)c(=O)c2cc(S(=O)(=O)N3CCCC3)ccc21	96	97
2	CC(C)=C(NC(=O)c1ccccc1)C(=O)N(C)C	100	102
3	Cc1ccc(-n2c(=O)c3ccc(C(=O)NCc4ccco4)cc3n(CC(=O)Nc3ccccc3C(F)(F)F)c2=O)cc1	95	104
4	COC(=O)c1cc(OC)c(OC)cc1NC(=O)c1ccc2c(c1)CCN2S(=O)(=O)c1ccccc1	89	103
5	CCCN(CCC)C(=O)/C=C/c1cc(OC)c(OC)c(OC)c1	75	105
6	O=C(c1cccc(Br)c1)N1CCN(Cc2cc(=O)n3nc(-c4ccccc4)sc3n2)CC1	90	101&100
7	CCN(CC)C(=O)c1c(-c2ccccc2)oc2ccc(O)cc12	71	101
8	CCOc1ccccc1NC(=O)C1CCCN(c2ccc(-c3ccccc3)nn2)C1 (configuration not stated)	x	96

no.	Sa growth 42C	HCMV UL50-53 inh
1	107	-17
2	111	-5
3	86	-17
4	99	-25
5	107	-33
6	94	x
7	87	-23
8	x	-10

# Additional structures.
no.	canonical_smiles	Sa growth 42C second temp	GIV Gai3 FP
9	O=C(CCC(=O)N1CCc2cc(S(=O)(=O)NCC3CCCO3)ccc21)N1CCCC1 (configuration not stated)	x	103
10	Clc1ccc(-c2noc(CSC3=NCC4CCCC4N3)n2)cc1 (configuration not stated)	82	107
11	COC(=O)c1c(NC(=O)CCC(=O)O)sc2c1CCCC2	76	102
12	Cc1ccc2cccc(NC(=O)c3ccc(-c4cccc(Cl)c4)o3)c2n1	95	101
13	Cc1oc(-c2ccc(C(=O)NCC3CCCO3)cc2)nc1CN1CCN(c2ccccc2)CC1 (configuration not stated)	x	105
14	N#C/C(=C\c1ccccc1F)c1ccccc1	92	x
15	CCOc1ccc2nc(SCC(=O)O)oc2c1	120	100
16	CC(C)(C)OC(=O)N1CCC(c2c(C(=O)NCCN3CCOCC3)cnn2-c2cccc(Cl)c2)CC1	92	99

no.	Sa growth 42C	HCMV UL50-53 inh
9	x	-17
10	98	-2
11	104	-6
12	110	-27
13	x	-29
14	110	-6
15	90	-4
16	102	x

# (cont.)
no.	canonical_smiles	Sa growth 42C second temp	GIV Gai3 FP
17	O=C(NCCc1ccccc1)C1CCN(Cc2cc3ccccc3n2Cc2ccccc2)CC1	85	100
18	NN1C(=O)NC2(CCCCC2)C1=O	91	x
19	c1ccc(OCCCn2cnc3ccccc32)cc1	74	102
20	O=c1c(S(=O)(=O)c2ccc(F)c(F)c2)c[nH]c2c(F)cccc12	x	101
21	CCN1CCN(c2nc(-c3ccc(C)cc3)nc3ccccc23)CC1	x	103
22	CCCn1c(=O)cc(N)n(-c2ccc(OC(F)(F)F)cc2)c1=O	83	104
23	CCN(C(=O)Cn1c(=O)oc2cc(S(=O)(=O)N3CCCC3)ccc21)c1ccccc1	82	105
24	O=C(COc1ccc(Cl)cc1)N1CCN(S(=O)(=O)c2cc3c4c(c2)CCN4C(=O)CC3)CC1	x	103

no.	Sa growth 42C	HCMV UL50-53 inh
17	106	x
18	100	-1
19	107	6
20	x	-32
21	x	-17
22	91	-39
23	92	x
24	x	-22

# Next part:
no.	canonical_smiles	Sa growth 42C second temp	GIV Gai3 FP
25	CC(C)[C@H](NC(=O)c1cccc(S(=O)(=O)N2CCOCC2)c1)C(=O)Nc1nc2ccccc2s1	93	x
26	CCCN1C(=O)/C(=c2\sc3n(c2=O)C(c2cccs2)C(C(=O)OC)=C(C)N=3)c2ccccc21 (configuration not stated)	x	108
27	O=C(NCC1CCCO1)c1cnc2sc3c(n2c1=O)CCCCCC3 (configuration not stated)	x	106
28	CSC1=NC2(C)CCCCC2C12C=CC(=O)C=C2 (configuration not stated)	86	98
29	CCC(C)NC(=O)COc1ccc(C(C)(C)c2ccccc2)cc1 (configuration not stated)	86	105
30	Cc1cc(NC(=O)c2cc3ccccc3o2)n(-c2ncnc3c2cnn3-c2ccc(F)cc2)n1	x	105
31	COC(=O)CNc1cn[nH]c(=O)n1	71	103
32	COC(=O)c1ccc(Cn2c[n+](N)cn2)cc1	83	x

no.	Sa growth 42C	HCMV UL50-53 inh
25	95	4
26	x	-10
27	x	-1
28	108	-6
29	96	x
30	x	-21
31	126	-2
32	108	-33

# Continuation.
no.	canonical_smiles	Sa growth 42C second temp	GIV Gai3 FP
33	Cn1cnc2cc(NCc3ccccc3Cl)ccc21	77	100
34	O=C(OCC(=O)N1CCN(c2ccccc2)CC1)C1=COCCO1	88	x
35	Cc1cc(-n2c(C)nc3ccccc3c2=O)ccc1NC(=O)C(F)(F)F	97	97
36	CC(c1nnc(-c2cccs2)o1)N1CCC(Cc2ccccc2)CC1 (configuration not stated)	73	x
37	Cc1nn(Cc2ccccc2)c(C)c1NC(=O)c1cc(C(C)C)on1	85	101
38	CCOC(=O)c1c(NC(=O)c2ccc(Cl)c([N+](=O)[O-])c2)sc(C(=O)Nc2cc(C(F)(F)F)ccc2Cl)c1C	x	97
39	Cc1cccc(C(=O)Nc2ccccc2C#N)c1	109	93
40	COc1ccc(N2C(=O)CCC(C(=O)N3CCCCC3)C2c2ccc(OC)c(OC)c2)cc1 (configuration not stated)	95	98

no.	Sa growth 42C	HCMV UL50-53 inh
33	97	1
34	92	2
35	112	x
36	81	-11
37	110	-2
38	x	-4
39	99	10
40	89	x

# New compounds follow:
no.	canonical_smiles	Sa growth 42C second temp	GIV Gai3 FP
41	COc1cccc(CNC(=O)CN2C(=O)COc3ccc(S(=O)(=O)N4CCOCC4)cc32)c1	89	107
42	O=C(Nc1ccccc1)c1cccc(S(=O)(=O)N2CCOCC2)c1	88	100
43	O=C(NCc1ccco1)C(c1ccccc1)N(C(=O)Cn1nnc2ccccc21)C1CCCC1 (configuration not stated)	125	102
44	Clc1ccc(-c2csc(-c3ccc4c(c3)CCO4)n2)s1	91	106
45	COc1cc(C(=O)N/N=C(\C)c2ccc(-n3ccnc3)cc2)cc(OC)c1OC	83	x
46	CCc1ccc(CNC(=O)c2c(C)oc3ncn(CC(C)C)c(=O)c23)cc1	94	108
47	Nc1nc(-c2ccccc2)cn1Nc1ccccc1	68	x
48	COCCN1Cc2cccc(C(=O)NCCCN3CCCC3=O)c2C1=O	88	105

no.	Sa growth 42C	HCMV UL50-53 inh
41	138	x
42	98	-18
43	110	21
44	102	-22
45	87	-61
46	103	x
47	106	-45
48	101	-13

# Quoted from above: compounds 29 to 45
no.	canonical_smiles	Sa growth 42C second temp	GIV Gai3 FP
29	CCC(C)NC(=O)COc1ccc(C(C)(C)c2ccccc2)cc1 (configuration not stated)	86	105
30	Cc1cc(NC(=O)c2cc3ccccc3o2)n(-c2ncnc3c2cnn3-c2ccc(F)cc2)n1	x	105
31	COC(=O)CNc1cn[nH]c(=O)n1	71	103
32	COC(=O)c1ccc(Cn2c[n+](N)cn2)cc1	83	x
33	Cn1cnc2cc(NCc3ccccc3Cl)ccc21	77	100
34	O=C(OCC(=O)N1CCN(c2ccccc2)CC1)C1=COCCO1	88	x
35	Cc1cc(-n2c(C)nc3ccccc3c2=O)ccc1NC(=O)C(F)(F)F	97	97
36	CC(c1nnc(-c2cccs2)o1)N1CCC(Cc2ccccc2)CC1 (configuration not stated)	73	x
37	Cc1nn(Cc2ccccc2)c(C)c1NC(=O)c1cc(C(C)C)on1	85	101
38	CCOC(=O)c1c(NC(=O)c2ccc(Cl)c([N+](=O)[O-])c2)sc(C(=O)Nc2cc(C(F)(F)F)ccc2Cl)c1C	x	97

no.	Sa growth 42C	HCMV UL50-53 inh
29	96	x
30	x	-21
31	126	-2
32	108	-33
33	97	1
34	92	2
35	112	x
36	81	-11
37	110	-2
38	x	-4

no.	canonical_smiles	Sa growth 42C second temp	GIV Gai3 FP
39	Cc1cccc(C(=O)Nc2ccccc2C#N)c1	109	93
40	COc1ccc(N2C(=O)CCC(C(=O)N3CCCCC3)C2c2ccc(OC)c(OC)c2)cc1 (configuration not stated)	95	98
41	COc1cccc(CNC(=O)CN2C(=O)COc3ccc(S(=O)(=O)N4CCOCC4)cc32)c1	89	107
42	O=C(Nc1ccccc1)c1cccc(S(=O)(=O)N2CCOCC2)c1	88	100
43	O=C(NCc1ccco1)C(c1ccccc1)N(C(=O)Cn1nnc2ccccc21)C1CCCC1 (configuration not stated)	125	102
44	Clc1ccc(-c2csc(-c3ccc4c(c3)CCO4)n2)s1	91	106
45	COc1cc(C(=O)N/N=C(\C)c2ccc(-n3ccnc3)cc2)cc(OC)c1OC	83	x

no.	Sa growth 42C	HCMV UL50-53 inh
39	99	10
40	89	x
41	138	x
42	98	-18
43	110	21
44	102	-22
45	87	-61

# More entries follow:
no.	canonical_smiles	Sa growth 42C second temp	GIV Gai3 FP
49	O=C(CSc1nc2ccccc2n1Cc1ccccc1)NCc1ccccc1	86	100
50	CC1=C(c2ccc(C(C)C)cc2)S(=O)(=O)NC1=NCCCN1CCN(c2ccccc2F)CC1	97	97
51	CC1CCCC(C)N1C(=O)Cc1noc2ccccc12 (configuration not stated)	93	101&107
52	N#Cc1ccc(CSC2=NCCN2)cc1	87	x
53	Cc1nn(-c2ccccc2)c(C)c1C(=O)OCC(=O)N(C)C1CCS(=O)(=O)C1 (configuration not stated)	89	x
54	Cc1ccc(-n2ncc3c(NC4CCCCCC4)ncnc32)cc1	87	101
55	COC(=O)c1nnn(CC(=O)NC(=O)Nc2ccccc2F)c1C(=O)OC	92	99
56	O=S(=O)(c1cccc2nsnc12)N1CCC(O)(c2cccc(C(F)(F)F)c2)CC1	87	100

no.	Sa growth 42C	HCMV UL50-53 inh
49	96	x
50	136	-12
51	124	2&-9
52	106	-19
53	63	-21
54	112	x
55	100	-10
56	97	x

# Later entries
no.	canonical_smiles	Sa growth 42C second temp	GIV Gai3 FP
57	CCOc1cc(C2C3=C(CC(c4ccccc4O)CC3=O)Nc3onc(C)c32)ccc1O (configuration not stated)	x	102
58	COc1ccc(Br)cc1CNC(=O)CCc1cn(Cc2ccc(C)cc2)c2ccccc12	103	109
59	CCOc1nc(OCC)nc(-n2cc(-c3ccccc3)nn2)n1	86	x
60	COc1ccc(O)c(C(=O)C2c3ccccc3C(=O)N2c2ccc(C)cc2)c1 (configuration not stated)	43	104
61	CSc1nc(-c2ccc(Cl)cc2)nn1C(C)=O	81	96
62	COc1cccc(N2CCCn3c2nc2c3c(=O)n(CC(=O)O)c(=O)n2C)c1	x	102
63	Cc1ccc(CNC(=O)C2CCC(CNS(=O)(=O)c3ccc(C)cc3)CC2)cc1 (configuration not stated)	91	103
64	Cc1ccc(S(=O)(=O)Cc2nc(-c3ccc(C(=O)NCc4ccccc4F)cc3)oc2C)cc1	77	110

no.	Sa growth 42C	HCMV UL50-53 inh
57	x	-2
58	139	x
59	111	-7
60	102	-8
61	104	4
62	x	11
63	112	x
64	101	x

# (more compounds)
no.	canonical_smiles	Sa growth 42C second temp	GIV Gai3 FP
65	COc1ccc(C2CC(=O)N(CC(=O)NCc3ccco3)c3ccccc3S2(=O)=O)cc1OC (configuration not stated)	96	111
66	Cc1nn(-c2ccccc2)nc1CNC(=O)C1=Cc2ccccc2OC1	90	102
67	O=C(c1ccccc1)N1CCCN(c2nccc(C(F)(F)F)n2)CC1	87	99
68	Cc1ccc(N(C)C(=O)C2CCN(S(=O)(=O)c3c(C)noc3/C=C/c3c(C)cc(C)cc3C)CC2)cc1	92	100
69	CSC(SC)=C(C#N)S(=O)(=O)c1ccc(Cl)cc1	82	102
70	Cc1cc(C#N)c2c(C)ccc(C(C)C)cc1-2	83	95
71	COc1ccc(-c2nc3c(cnn3-c3ccccc3)c(=O)[nH]2)cc1COc1ccc(C(C)(C)C)cc1	x	99
72	O=C(Nc1ccc(-c2nc3ncccc3o2)cc1)c1ccc(-c2cc3ccccc3oc2=O)cc1	102	103

no.	Sa growth 42C	HCMV UL50-53 inh
65	100	-11
66	102	-10
67	83	-19
68	102	x
69	94	-6
70	69	-43
71	x	24
72	99	2

# Following part:
no.	canonical_smiles	Sa growth 42C second temp	GIV Gai3 FP
73	COc1ccccc1C1CC(c2c(-c3ccccc3)c3cc(Br)ccc3[nH]c2=O)=NN1C(=O)c1ccco1 (configuration not stated)	x	100
74	Cc1ccc(-c2nn3c(=O)cc(CNC(=O)Nc4cc(C)cc(C)c4)nc3s2)cc1	x	101
75	Cc1nc(S/C=C/C(=O)c2ccccc2)c(C#N)c(C)c1C	75	100
76	O=C(O)c1ccccc1C(=O)Nc1ccc(Br)c(C(F)(F)F)c1	94	102
77	NNC(=O)c1cc2c(s1)-c1ccccc1CC2	53	102
78	Cc1nc2ccccn2c(=O)c1Cc1nnc(SCC(=O)Nc2cccc(Cl)c2C)n1C	x	107
79	O=C(CSc1ccccc1C(=O)O)Nc1ccccc1	89	95
80	CCOc1ccccc1C1CC(=O)NC(C)=C1C(=O)OC1CCCCCC1 (configuration not stated)	94	105

no.	Sa growth 42C	HCMV UL50-53 inh
73	x	1
74	x	-26
75	84	-16
76	80	-21
77	88	-68
78	x	-41
79	84	-3
80	111	-5

# (further entries)
no.	canonical_smiles	Sa growth 42C second temp	GIV Gai3 FP
81	C=CCN(CC=C)C(=O)c1ccc(SC)cc1OC	79	102
82	CCN(CC)C(=O)C1CCN(Cc2ccccc2F)CC1	85	100
83	Cc1c(C(=O)O)sc2ncnc(N3CCN(c4ccccc4F)CC3)c12	x	103
84	CC1CCc2c(sc(NC(=O)COc3ccccc3C(C)(C)C)c2C#N)C1 (configuration not stated)	94	104

no.	Sa growth 42C	HCMV UL50-53 inh
81	130	-3
82	104	-3
83	x	-18
84	102	-12

# Compound activity as filed in PubChem BioAssay.
